Assay outcomes from PubChem BioAssay.
Rce1 inh = inhibitors of yeast Ras-converting enzyme. Q03530. yeast membranes, quenched prenylated peptide cleavage fluorescence. calls only. 290,000 tested, 0.27% active. AID 2563;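 active = fall in fluorescence gain of 50% or more versus controls, with final raw signal at or below 3038400; inconclusive = same 50% fall but final raw signal above 3038400; inactive = fall in fluorescence gain under 50%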;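 also: plate controls were neutral control wells for no effect and wells lacking membranes for full effect; tested at 10 µM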
CSC inhib = blocks cancer stem cells; cancer stem cell-like cells viability, luminescence; inhibition, % at 7.5 µM; 300,000 tested, 1.1% active; AID 2717;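 active = mean at 75% or more and at least half the replicates too; inconclusive = mean and replicates disagree; tested in HMLE shEcad cells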;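 also: 0% = median of negative and 100% = median of positive control wells; the first replicate is given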
MT1-MMP act inh = MT1-MMP (human) activation inhibition; P50281; HT1080 RFP-PRO-GFP cells, GFP/RFP ratio fluorescence, overnight; percent of plate control window, DMSO zero; GFP/RFP ratio change, % at 20 µM; 360,000 tested, 0.061% active;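 active = GFP/RFP ratio change of at least 30% with cell ATP level not reduced by more than half and red fluorescence within 50% of control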; also: strong numbers were not always called active
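system = RFP-PRO-GFP reporter HT1080 cells | dosing = 20 µM single dose, 1% DMSO | timing = overnight cell settling, then overnight compound exposure, 37 °C, 5% CO2 | read-out basis = GFP/RFP fluorescence ratio | controls = DMSO and RFP-L50D-GFP cell wells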
PABP polyA inh = blocks human PABP binding to poly(A) RNA; P11940; fluorescence polarization; inhibition, % at 35 µM; 290,000 tested, 1% active; AID 2014;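 active = 50% or more with normal probe brightness, or confirmed in later tests; inconclusive = above 50% with abnormal brightness, or retests that disagree; inactive = below 50% or failed in later tests; about a fifth of its hits are not listed in these tables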;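 also: calls also rest on retests at 20 µM and on dose response follow-up; controls were probe without protein and protein plus probe with vehicle; some compounds called inactive have numbers as strong as hits; many hits fall short of the cut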
Target sequence (P11940 whole entry, looked up): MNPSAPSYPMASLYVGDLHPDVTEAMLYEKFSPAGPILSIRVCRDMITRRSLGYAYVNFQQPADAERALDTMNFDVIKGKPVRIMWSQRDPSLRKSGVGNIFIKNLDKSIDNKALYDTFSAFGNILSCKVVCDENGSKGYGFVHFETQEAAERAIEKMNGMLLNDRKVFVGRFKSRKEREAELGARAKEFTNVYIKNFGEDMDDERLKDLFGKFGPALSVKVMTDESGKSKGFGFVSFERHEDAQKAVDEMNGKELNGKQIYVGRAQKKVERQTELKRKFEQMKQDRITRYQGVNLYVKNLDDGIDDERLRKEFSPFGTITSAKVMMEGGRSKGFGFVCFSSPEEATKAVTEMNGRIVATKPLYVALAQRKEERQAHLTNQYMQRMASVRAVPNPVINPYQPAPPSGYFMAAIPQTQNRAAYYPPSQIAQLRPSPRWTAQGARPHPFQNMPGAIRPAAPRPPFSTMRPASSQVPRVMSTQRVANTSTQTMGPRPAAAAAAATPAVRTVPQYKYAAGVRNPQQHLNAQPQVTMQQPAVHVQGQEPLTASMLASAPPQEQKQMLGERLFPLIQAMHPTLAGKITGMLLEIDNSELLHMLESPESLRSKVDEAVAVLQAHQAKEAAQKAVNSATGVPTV
HIV Env fusion = HIV envelope-mediated fusion inhibition. HeLa-JRFL Env/CEM21 cell fusion, luciferase. inhibition, % at 12.3 µM. 360,000 tested, 1.1% active;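 active = mean replicate inhibition score of at least 50 and every replicate individually at or above 50; inconclusive = only one of the two criteria met; inactive = mean below 50 and not all replicates reaching 50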;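 also: 0% = plate neutral controls and 100% = maraviroc near 300 nM; one replicate is shown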
eIF4H FP inh = inhibitors of RNA binding by human eIF4H. Q15056. eIF4H fluorescence polarization binding assay. inhibition, % at 35 µM. 290,000 tested, 0.94% active;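 active = 50% or more with normal probe brightness, or confirmed in later tests; inconclusive = above 50% with abnormal brightness, or retests that disagree; inactive = below 50% or failed in later tests; about a fifth of its hits are not listed in these tables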;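 also: calls also rest on retests at 20 µM and on dose response follow-up; 0% = protein and probe with vehicle and 100% = probe without protein; strong numbers were not always called active; many hits fall short of the cut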
UUG fidelity = yeast start codon fidelity modulation; S. cerevisiae UUG-firefly luciferase reporter, luminescence/redox ratio; activity score, % at 18.7 µM; 350,000 tested, 0.13% active; AID 602363;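 active = replicate mean at a twofold rise or more, about +100% in these data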;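 also: firefly luciferase made from a UUG start codon reports start codon fidelity; reporter light over untreated wells divided by growth signal over untreated wells; some hits fall short of that in this replicate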
MT1-MMP act inh RFP = further read-out of MT1-MMP act inh, marked with its call; RFP signal change, %; measured here: RFP expression control read;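 0 = vehicle wells; hits needed this value within 50% of zero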
* marks the source's active call; other numbers are inactive results; i = inactive; ? = inconclusive; . = not tested or not shown; + = active, no number. These rows are one share of the data; count on the stated rates, not on these rows.

SMILES	Rce1 inh	CSC inhib	MT1-MMP act inh	MT1-MMP act inh RFP	PABP polyA inh	HIV Env fusion	eIF4H FP inh	UUG fidelity
CCOC(=O)N1CCN(C2OC(=O)c3ccccc32)CC1 (stereo not drawn)	i	-14.7	0.5	1.0	-3.8	-13.7	-0.8	-11.3
CCOc1ccccc1NC(=O)CSc1nnc(CNC(=O)c2c(F)cccc2Cl)o1	i	-11.0	-3.6	2.5	-3.3	1.8	-1.6	-8.1
CCOC(=O)c1c(-n2cnnn2)sc(C)c1C	i	-15.0	-2.9	5.2	-4.1	-36.4	-3.4	-18.3
COc1ccc(CCNC(=S)NC(=O)c2cc(OC)c(OC)c(OC)c2)cc1OC	i	-5.3	1.1	-2.6	12.5	9.3	3.0	.
Nc1nc(-c2ccccc2)c(N=Nc2cccnc2)s1	i	.	18.6	-4.2	?	-14.9	5.3	.
Cc1ccc(NC(=O)Cc2cn(C)c3ccccc23)cc1F	i	-2.7	3.7	-6.2	-10.4	1.2	2.3	2.5
C=CCn1c(O)c(CN2CCOCC2)c(C)c(C#N)c1=O	i	-16.2	-17.8	9.3	?	.	?	-8.1
Cc1cccc(OCc2nnc(SCC(=O)Nc3ccc(C)c(C)c3)o2)c1	i	-10.2	2.8	1.4	-3.9	.	-0.4	-6.6
O=C(CNS(=O)(=O)c1ccc(Br)cc1)N1CCOCC1	i	-13.5	0.2	1.8	2.1	-123.3	-9.3	-18.0
COc1cccc(C(=O)Nc2cccnc2)c1	i	.	5.5	5.6	8.1	-23.5	0.6	.
OCCCc1cn(Cc2ccccc2)c2ccccc12	i	-1.7	-1.1	-1.6	8.9	21.9	4.3	-2.4
CCCCn1nc(NC(=O)COC)c2cc3cc(OC)ccc3nc21	i	-8.5	10.5	1.7	3.5	-5.2	-13.0	22.8
CCOC(=O)c1sc(=NC(=O)c2cccc(OC)c2)n(C)c1C	i	-4.3	1.0	4.8	3.8	-47.5	-10.4	-3.5
COc1ccc(-c2nc(NC(=O)Cn3ccc(C(F)(F)F)n3)sc2C)cc1	i	16.4	12.3	-22.1	-6.6	.	-4.3	-4.1
O=C1C=C(c2ccc3c(c2)OCO3)C[C@@H](c2ccc3c(c2)OCO3)C1	.	-13.4	6.0	6.4	.	-23.3	.	-24.4
CCn1c(CSCc2c(Cl)cccc2Cl)n[nH]c1=S	i	-2.8	4.2	-2.1	-2.0	8.3	4.7	-15.5
COC(=O)C[C@H]1C[C@H]2c3cc(NC(=O)C4CCOCC4)ccc3O[C@H]2[C@H](CO)O1	.	.	0.9	2.5	.	-55.8	.	-12.1
COc1ccccc1NS(=O)(=O)c1cc(NC(C)=O)ccc1N1CCCCC1	i	-6.0	2.6	-1.0	-3.2	-12.3	5.4	-5.0
Cc1ccc(-n2ncc3c(=O)n(CC(=O)NCc4ccco4)cnc32)cc1	i	3.9	-3.3	-2.6	-11.3	-108.5	2.3	-19.8
Cc1ccc(S(=O)(=O)CCCS(=O)(=O)c2ccc(C)cc2)cc1	i	-16.4	4.0	4.3	-10.8	6.9	6.5	-5.2
Cn1c(C(=O)NCc2ccco2)cc2c(=O)[nH]c3ccccc3c21	i	-13.2	8.4	-0.9	8.6	-34.2	-17.3	-8.6
COC(=O)Cn1nnc(-c2cccc(OC)c2)n1	.	8.5	3.2	-4.2	-7.7	.	-10.8	-19.9
CN(CC(=O)Nc1ccccc1Cl)C(=O)COC(=O)C1CC1	i	-17.9	1.8	2.9	.	1.4	.	-5.1
N#CCSc1nnc(-c2c[nH]c3ccccc23)o1	i	-11.5	1.0	3.5	1.4	-72.4	-6.1	-11.0
COc1ccc(NC(=O)COc2ccccc2C)cc1S(=O)(=O)N1CCCCC1	i	0.8	3.8	-10.3	.	2.9	.	-14.6
COc1ccc(CCNC(=O)c2cc3sc(Cl)cc3n2C)cc1OC	i	-1.2	3.9	0.5	-10.1	-8.4	-3.2	-1.0
Cc1ccccc1C(=O)c1cn[nH]c1-c1ccccc1O	i	-3.2	3.0	4.4	7.2	12.5	5.7	-19.6
Cc1ccc(NC(=O)c2noc(C(C)C)c2[N+](=O)[O-])cc1	i	0.4	12.8	17.2	-6.8	3.8	-2.7	.
O=c1nc(N/N=C/c2c[nH]c3ccccc23)cn[nH]1	.	-8.0	6.4	2.6	7.0	47.8	6.0	.
CCOc1nc2cnccc2n(CC(=O)Nc2ccc(C)c(C)c2)c1=O	i	-0.7	1.6	4.1	-4.3	2.6	-14.7	5.3
CCCCn1c(N)c(N(CC(C)C)C(=O)C2=NN(c3cc(C)ccc3C)C(=O)CC2)c(=O)[nH]c1=O	i	7.6	1.5	5.1	.	-9.9	.	4.8
O=C(CCN1C(=O)c2ccccc2S1(=O)=O)NCc1ccccc1	i	-7.1	4.6	7.2	.	4.6	.	-6.8
CC(=O)Nc1ccccc1C(=O)N1CCN(Cc2ccccc2)CC1	i	-6.5	1.6	-6.5	15.9	-7.9	-2.5	.
COC(CNc1cc(=O)oc2ccccc12)OC	.	2.4	-11.2	-4.5	0.2	-39.2	-1.6	-11.4
CCN(CC)C1CCN(C(=O)c2cc(COc3cccc4cccnc34)on2)C1 (stereo not drawn)	i	.	5.4	5.4	9.2	-12.0	-1.7	-27.8
Cc1cccc(/C=N/NC(=O)c2cc(C)nc3ccccc23)n1	i	9.1	-2.5	0.0	-5.6	-19.1	11.5	-2.8

Record cards (already shown). Order of values: Rce1 inh	CSC inhib	MT1-MMP act inh	MT1-MMP act inh RFP	PABP polyA inh	HIV Env fusion	eIF4H FP inh	UUG fidelity
Record of `Cc1ccc(NC(=O)c2noc(C(C)C)c2[N+](=O)[O-])cc1` → i	0.4	12.8	17.2	-6.8	3.8	-2.7	.
Record of `Cn1c(C(=O)NCc2ccco2)cc2c(=O)[nH]c3ccccc3c21` → i	-13.2	8.4	-0.9	8.6	-34.2	-17.3	-8.6

Other compounds:
SMILES	Rce1 inh	CSC inhib	MT1-MMP act inh	MT1-MMP act inh RFP	PABP polyA inh	HIV Env fusion	eIF4H FP inh	UUG fidelity
COc1ccc(Cc2nc(C(=O)Nc3ccccc3)cs2)cc1	i	2.4	3.6	-5.2	-5.8	.	-2.1	-9.8
CCOc1ccccc1CNC(=O)C1CCN(S(=O)(=O)N2CCC(C)CC2)CC1	.	.	-0.6	-2.4	.	12.6	.	-1.5
Cc1ccc(S(=O)(=O)Oc2ccc(C3C4=C(CCCC4=O)N(CCC(=O)O)C4=C3C(=O)CCC4)cc2Cl)cc1	+	-13.6	-1.9	4.9	-1.2	20.9	6.4	.
O=C(O)CCCn1c(=O)[nH]c2ccccc2c1=O	i	-3.5	2.4	5.4	-6.9	-104.1	0.7	-10.6
CC(C)Cc1nnc(NC(=O)C2CC(=O)N(Cc3ccccc3)C2)s1 (stereo not drawn)	i	-9.5	1.1	0.1	5.8	-17.6	-12.2	-1.2
O=C1C(c2ccnc3ccccc23)=C(O)c2ccccc21	i	-7.0	-1.0	6.1	11.6	.	7.7	-37.7
Cc1ccc(C(=O)NCc2cccnc2)cc1S(=O)(=O)N1CCCCCC1	i	-34.6	7.2	-4.2	-9.9	11.1	-7.6	-14.4
CC(=O)NS(=O)(=O)c1ccc(NC(=S)NC(=O)COc2ccccc2C)cc1	i	-17.3	5.5	5.5	-1.7	-23.1	-2.6	.
CCc1ccc(NC(=O)c2ccc(NC(=O)C3CCCO3)cc2)cc1 (stereo not drawn)	i	3.4	3.1	-6.4	0.1	.	-0.8	0.5
C#CCOCCOCCOCCNc1nc(N2CCN(C(=O)[C@H](Cc3ccc(O)cc3)n3cc([C@@H](N)C(C)CC)nn3)CC2)nc(N2CCN(C(=O)[C@H](Cc3cc4ccccc4[nH]3)n3cc([C@@H](N)CC(C)C)nn3)CC2)n1 (stereo partly drawn)	i	6.0	.	.	34.2	1.9	4.7	.
COc1ccc(C(=O)N2CCn3c(C)ccc3C2C)cc1 (stereo not drawn)	i	4.4	-13.2	9.3	4.6	12.3	45.4	0.5
COc1ccc(CNC(=O)c2ccc(Cn3nc(C)cc3C)o2)cc1	i	-7.2	-1.2	2.5	12.2	-0.7	-2.5	-19.2
Cc1c(Cc2ccccc2)c(=O)oc2cc(OC(=O)c3ccccc3)ccc12	i	-7.7	0.7	-3.2	5.5	-37.1	-7.1	-12.1
Cc1nc(SCC(=O)NC2CCCCC2C)c(C#N)c(C)c1C (stereo not drawn)	.	-22.6	-2.7	-5.4	.	.	.	-15.0
O=C(CSc1nnc(Cc2cccs2)n1-c1ccc(Cl)cc1)NCc1ccc2c(c1)OCO2	i	13.2	-5.3	-0.2	8.0	-37.2	-3.6	-9.0
CCN(CC)C(=O)CSc1nnc([C@H](CCSC)NC(=O)OC(C)(C)C)o1	i	-6.5	-3.1	-2.4	1.2	.	-9.7	-10.1
COc1ccc(C(=O)NC2(C(F)(F)F)NC(=O)N(CCCc3ccccc3)C2=O)cc1OC (stereo not drawn)	i	8.6	-2.0	-6.0	-9.5	48.9	8.0	21.7
COc1ccc(OC)c(C2=NS(=O)(=O)N(C)C(C(=O)Nc3ccc(F)cc3F)=C2)c1	i	3.1	4.2	-15.2	10.7	8.2	-10.0	5.3
Cn1c(SCC(=O)C(C)(C)C)nnc1-c1ccc(F)cc1	i	1.6	-0.6	-3.6	4.2	-0.5	3.4	.
Cc1ccc(NC(=O)C2Cc3ccccc3CN2C(=O)c2ccco2)cc1S(=O)(=O)N(C)C (stereo not drawn)	i	.	-0.3	2.2	13.4	-5.5	-0.8	-5.7
O=P(/C(=N/O)Sc1ccccc1)(N1CCOCC1)N1CCOCC1	i	-2.7	0.9	0.5	-0.3	-17.9	2.1	-0.2
CC(C)c1nnc(NC(=O)c2cccc(-n3cnnn3)c2)s1	i	-15.2	1.8	-0.5	-3.9	.	-1.1	-17.4
CC(NC(=O)C(=O)NCCN1CCN(C(=O)c2ccc([N+](=O)[O-])cc2)CC1)c1ccccc1 (stereo not drawn)	i	.	2.0	-1.5	5.4	-3.9	11.9	-1.9
COc1ccc(-c2cc3nc(C)n(N)c(=O)c3s2)cc1	i	97.1*	-1.2	-8.1	1.9	84.0*	2.9	-84.0
O=C(CN1CCCC1)NCC1(c2ccccc2)CCOCC1	i	-3.0	2.9	-0.5	-3.0	-30.0	-7.0	-4.8
Cc1ccc(S(=O)(=O)N2CCC(C(=O)OCC(=O)N(C)Cc3ccccc3)CC2)cc1C	i	.	6.4	2.3	.	-13.5	.	.
Cc1ccc(/C=C2/NC(=O)N(Cc3ccc(Br)cc3)C2=O)o1	i	18.9	-16.3	6.9	-6.5	-1.7	13.0	-12.0
Cc1cc(C)cc(-n2ccnc2SCC(=O)c2c(N)n(C3CC3)c(=O)[nH]c2=O)c1	.	-10.5	-3.9	2.1	.	.	.	-7.9

2 of these compounds in another layout.
Values in the order: Rce1 inh, CSC inhib, MT1-MMP act inh, MT1-MMP act inh RFP, PABP polyA inh, HIV Env fusion, eIF4H FP inh, UUG fidelity
Cc1ccc(/C=C2/NC(=O)N(Cc3ccc(Br)cc3)C2=O)o1
    i, 18.9, -16.3, 6.9, -6.5, -1.7, 13.0, -12.0
Cc1cc(C)cc(-n2ccnc2SCC(=O)c2c(N)n(C3CC3)c(=O)[nH]c2=O)c1
    ., -10.5, -3.9, 2.1, ., ., ., -7.9

By substructure, the compounds so far with a cyano group
SMILES	Rce1 inh	CSC inhib	MT1-MMP act inh	MT1-MMP act inh RFP	PABP polyA inh	HIV Env fusion	eIF4H FP inh	UUG fidelity
C=CCn1c(O)c(CN2CCOCC2)c(C)c(C#N)c1=O	i	-16.2	-17.8	9.3	?	.	?	-8.1
N#CCSc1nnc(-c2c[nH]c3ccccc23)o1	i	-11.5	1.0	3.5	1.4	-72.4	-6.1	-11.0
Cc1nc(SCC(=O)NC2CCCCC2C)c(C#N)c(C)c1C (stereo not drawn)	.	-22.6	-2.7	-5.4	.	.	.	-15.0
